# TRPV1 PAM = human TRPV1 potentiation; Q8NER1; TRPV1-expressing cells, Fluo-8 calcium influx, capsaicin EC20 potentiation; host cell line not named in the record; control for the full effect not named in the record; actives 0.02% (n = 320,000); potentiation, % at 8.33 µM; AID 540277; active means potentiation above 80%; inconclusive means 30% to 80%; inactive means below 30%; further: 0% is about no effect
#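 TRPV1-expressing cells were cultured overnight at 35.5C and loaded with Fluo-8 calcium dye for 40 to 90 min at room temperature. After a 10 s baseline, compound was added and calcium influx was read kinetically for 3 min (ex 480/em 520 nm).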
# ClpP mod = qHTS Assay for Activators of ClpP. ATP-dependent Clp protease proteolytic subunit (Bacillus subtilis (strain 168)), P80244. purified B. subtilis ClpP, FRET peptide cleavage, 20 min. Potency, µM (highest dose often 57.5 µM), for inactives: at the highest dose activity change, negative = active. actives 1.9% (n = 340,000). AID 651965, 2013; active = well fitted falling curve with a large enough effect; inconclusive = small, poorly fitted or top-dose-only effect; inactive = no such curve, though single readings can be large or run the other way; further: potency means the concentration at half of the fitted maximal effect; the source files actives as falling curves though it sought activators and does not explain the sign; nearly all actives have a fitted effect of over 65% in size; many hits overshoot -100%
# Target sequence (P80244 whole entry, looked up): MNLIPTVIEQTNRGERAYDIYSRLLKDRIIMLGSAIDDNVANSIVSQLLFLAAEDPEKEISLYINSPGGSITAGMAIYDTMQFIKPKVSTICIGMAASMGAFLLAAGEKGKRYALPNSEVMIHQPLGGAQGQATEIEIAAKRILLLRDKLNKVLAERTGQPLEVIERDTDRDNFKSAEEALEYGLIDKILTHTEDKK
#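 ClpP 10 microg/mL final, pH 8 Tris/KCl buffer with BSA, glycerol, Tween-20; compound pinned in; FRET-FV substrate; RT 20 min; Ex320/Em430; ΔFRET vs ADEP 5.8 microM, DMSO, no enzyme.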
# gsp ag = agonists of gsp mutant (McCune-Albright syndrome); Potency, µM (titrated, usually from 76.9 µM), for inactives: at the highest dose activation (cAMP increase), actives largely listed as activators; gsp mutant cells, cAMP HTRF, 30 min; control for the full effect not named in the record; actives 0.13% (n = 340,000); active = well fitted activation curve with a large enough effect; inconclusive = small, poorly fitted or top-dose-only effect, or another doubt; inactive = no such curve, though single readings can be large or run the other way; cell line not stated here;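 further: phosphodiesterase inhibitor Ro 20-1724 added with compounds to block cAMP breakdown; potency means the concentration at half of the fitted maximal effect; nearly all actives have a fitted effect of over 60% in size; about a fifth of the inactives were tested at one dose only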
#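 Cells in DMEM/10% FBS with G418 were pretreated with compounds in DMSO plus […] (300 uM stock) for 30 min at 37C. cAMP was measured by HTRF (cAMP-d2 plus anti-cAMP antibody-K) after 30 min at room temperature.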
# Menin MLL FP FL = displaces fluorescein MLL peptide from human menin | Fluorescence polarization, fluorescein-MLL peptide displacement from menin | FP activity change, % at 61.4 µM | 290,000 tested, under 10 active; inconclusive = falling polarisation curve, or a change in total fluorescence; inactive = total fluorescence flat and polarisation flat or rising; no compound was filed as active; the % refers to the polarisation; negative = inhibition;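 further: % of control where 0% means no effect; inhibitors lower the polarisation; unlabelled MLL peptide was the positive control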
# Sfp inh = blocks B. subtilis Sfp PPTase activity | Q9F4F7 | Biochemical Sfp PPTase activity, qHTS | Potency, µM, without a hit: max response, negative = inhibition, hits mostly inhibitors | actives 3.5% (n = 310,000); active means well fitted inhibition curve with a large enough effect; inconclusive means small, poorly fitted or top-dose-only effect, or another doubt; inactive means no such curve, though single readings can be large or run the other way;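 further: the enzyme is Sfp with the accession as filed and its product quenches rhodamine fluorescence; potency means the concentration at half of the fitted maximal effect; 0% = enzyme reaction without inhibitor and -100% = no enzyme wells; top concentration of the series not given in the record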
#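 After 15 min at room temperature with compound, 15 nM Sfp received 5 uM rhodamine-CoA plus 12.5 uM BHQ-2-ybbR (50 mM Hepes pH 7.6, 10 mM MgCl2). Rate came from the fluorescence difference over 30 min, ex 525/em 598 nm.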
# D2 PAM = positive allosteric modulators of human D2 dopamine receptor. DiscoveRx D2 beta-arrestin cells, luminescence, 90 min; 100% = 57 uM dopamine signal. actives 0.23% (n = 360,000). AID 624464. potentiation, % (concentration not given with the values); active = potentiation of 50% or more; inconclusive = 30% to 50%; inactive = 30% or less;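 further: compound concentration not given in the record; tested on top of an EC20 dose of dopamine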
# Target sequence (P14416 whole entry, looked up): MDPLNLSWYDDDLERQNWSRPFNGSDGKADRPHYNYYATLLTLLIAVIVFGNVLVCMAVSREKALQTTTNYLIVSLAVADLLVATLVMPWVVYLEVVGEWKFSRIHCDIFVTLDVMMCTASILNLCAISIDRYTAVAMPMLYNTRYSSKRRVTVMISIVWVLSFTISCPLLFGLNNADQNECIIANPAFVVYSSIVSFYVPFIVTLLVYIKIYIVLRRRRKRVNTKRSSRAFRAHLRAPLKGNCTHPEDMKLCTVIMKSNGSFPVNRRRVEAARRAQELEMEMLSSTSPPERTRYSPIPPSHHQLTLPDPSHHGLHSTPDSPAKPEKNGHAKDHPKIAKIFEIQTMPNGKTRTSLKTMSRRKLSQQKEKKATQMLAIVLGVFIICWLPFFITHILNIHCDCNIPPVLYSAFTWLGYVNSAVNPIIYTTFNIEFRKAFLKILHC
#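 PathHunter beta-arrestin assay in DiscoveRx D2 cells. Compounds were added with an EC20 of dopamine (50 nM final) for 90 min at 37 deg C. Luminescence was read 1 h after detection reagent, with 57 uM dopamine as the EC100 control.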
# gsp antag = antagonists of gsp mutant (McCune-Albright syndrome). Potency, µM (top dose mostly 76.9 µM), inactives show at the highest dose activity change, negative = inhibition, actives largely listed as inhibitors. actives 0.4% (n = 340,000). AID 624288. gsp-mutant cells, cAMP HTRF, 30 min; control for the full effect not named in the record; active = falling curve of any shape with a large fitted effect; inconclusive = falling curve, mostly with a smaller effect; inactive = flat or rising curve; cell line not stated here;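 further: intracellular cAMP measured with PDE inhibitor Ro 20-1724 present during compound exposure; potency means the concentration at half of the fitted maximal effect; on the % scale 0 is the no-effect control and ±100 the full control effect; nearly all actives have a fitted effect of over 65% in size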
#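 Cells, 2000/well, grown 16–24 h in DMEM 10% FBS with 0.5 mg/ml G418, then compounds plus […] (300 uM addition stock), 30 min at 37C. cAMP read by HTRF (cAMP-d2 and anti-cAMP antibody-K in lysis buffer) after 30 min RT.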
# * = called active by the depositor; ? = inconclusive; / = not tested or not shown; & = joins results of further samples; [ ] = dose if it differs, or a comment. Rows are unselected (roughly 5.1% active in at least one column).
SMILES	Sfp inh	Menin MLL FP FL	D2 PAM	gsp antag	ClpP mod	gsp ag	TRPV1 PAM
CC1=C(C(=O)Nc2cccnc2)C(c2ccccn2)n2nnnc2N1 (stereo not given)	-8%	3.2	-4	-2%	0.1%	-1%	/
N#Cc1nc(-c2cccs2)oc1NCc1ccc2c(c1)OCO2	-8%	0.2	23	10%	-8.1%	10%	-20
CCOc1ccc(S(=O)(=O)N(C)c2ccc(OCC(=O)Nc3ccccc3F)cc2)cc1	/	/	-3	-12%	-1.6%	-4%[15.4 µM]	5
COc1ccc(-c2ccc3c(c2)S(=O)(=O)c2cccc(C(=O)NC4CCCC4)c2C3=O)cc1OC	/	/	-2	-5%	1.0%	-2%	6
O=C(O)c1ccc(NCCc2ccc(Cl)cc2)c([N+](=O)[O-])c1	7%	5.2	-10	-21%	/	-9%	12
N/C(=N\OC(=O)c1cccc(Cl)c1)c1ccccn1	11%	0.5	?	6%	-2.2%	14%[15.4 µM]	-7
CCN(C(=O)Cn1c(=O)oc2ccccc21)C1CCS(=O)(=O)C1 (stereo not given)	3%	3.1	-8	-3%	0.2%	-2%	-7
Cc1cccnc1NC(=O)c1c(O)c2cccc3c2n(c1=O)CCC3	-24%	3.6	3	-2%	-8.7%	?	0
CCCCCn1c(CN2CCN(C(=O)c3ccco3)CC2)nc2c1c(=O)n(C)c(=O)n2C	25%	3.5	-2	-5%	-4.1%	?	6
CN(C)CCCN(C(=O)c1cc(Cl)sc1Cl)c1nc2cc3c(cc2s1)OCO3	-5%	/	-22	-9%	-4.1%	12%	14
O=C(CSc1nc(-c2ccco2)cc(C(F)(F)F)n1)N1CCN(c2ccc(Cl)cc2)CC1	-6%	7.2	-6	?	1.2%	7%	16
CC1CCN(CCCNC(=O)C2CCN(S(=O)(=O)N3CCCCC3)CC2)CC1	7%	3.1	-9	6%	-0.8%	-3%	6
CSc1nnc(CCNS(=O)(=O)c2ccccc2Br)n1C	8%	-4.3	-2	7%	/	2%[15.4 µM]	-4
COc1ccc(Cl)cc1N1C(=O)CC(N2CCN(S(=O)(=O)c3ccccc3F)CC2)C1=O (stereo not given)	/	/	-4	-9%	/	-34%[inhibitor]	/
Cc1cc(Cl)c(OCCOCCN2CCCC(C)C2)c(Br)c1 (stereo not given)	-14%	0.4	-13	13%	-0.6%	26%[15.4 µM]	2
CCn1c(=O)c(C(=O)NNS(=O)(=O)c2ccc(NC(=O)OC)cc2)c(O)c2ccccc21	11%	-0.8	-6	-11%	/	0%[15.4 µM]	9
CC(C)N1CCN(Cc2cccn2-c2nccs2)CC1CCO (stereo not given)	-9%	1.7	-13	/	/	10%[15.4 µM]	6
COc1ccc(-c2nnc(SCC(=O)c3ccc[nH]3)o2)cc1	-7%	-0.8	-2	9%	-0.1%	-2%	-26
O=C(COC(=O)C1COc2ccccc2O1)Nc1cccc(S(=O)(=O)N2CCCCC2)c1 (stereo not given)	15%	6.2	4	2%	/	17%[15.4 µM]	-4
CCC(=O)Nc1cccc(NC(=O)c2cccc([N+](=O)[O-])c2C)c1	7%	-0.5	-5	-3%	/	-1%	15
CCc1cccc(NC(=O)CN(C)S(=O)(=O)c2cccs2)c1	2%	0.5	-3	-1%	/	-3%	-24
OC1C2(Cc3ccccc3)CN3CCN(C2)CC1(Cc1ccccc1)C3 (stereo not given)	12%	3.1	-1	16%	0.3%	0%	-10
Cc1noc(C)c1COc1ccccc1C(=O)NNC(=O)c1ccccc1	/	/	18	3%	-1.3%	-49%[inhibitor]	-9
COc1cc(OC)c(-n2cc(-c3ccc(OC)c(OC)c3)[nH]c2=S)cc1Cl	-12%	7.4	-8	-8%	-9.2%	2%	1
O=C(C1CCCN(S(=O)(=O)c2cccc3nonc23)C1)N1CCN(c2ccccc2Cl)CC1 (stereo not given)	6%	4.9	-8	-20%	-0.6%&-6.1%	11%[15.4 µM]	-10
Cc1csc(NC(=O)CN2C(=O)C3CC=CCC3C2=O)n1 (stereo not given)	24%	1.1	?	4%	0.2%	-45%[inhibitor]	9
CN(C)CCOC1c2ccccc2CSc2ccccc21 (stereo not given)	/	/	-16	15%	/	?	/
O=C(NCCOc1ccccc1)C1CCN(C(=O)Nc2ccccc2)CC1	/	/	-14	/	1.0%	?	/
CCOC(=O)CNS(=O)(=O)Cc1ccccc1	/	/	0	12%	0.6%&-1.8%	23%	12
COC(=O)Cn1c(=NC(=O)c2cccc(OC)c2)sc2cc(OC)ccc21	20%	-0.9	-9	6%	25µM*	?	-10
COc1ccccc1NC(=O)CN1CCCCCC1	14%	2.1	-13	3%	/	5%[15.4 µM]	0
COc1ccc(C[C@H]2CN3C(=NC[C@@H]3Cc3ccccc3)N2CCNC(=O)CCC2CCCCC2)cc1	-3%	-5.0	-93	-1%	-0.5%	/	-2
COc1ccc(C)cc1NC(=O)CN1CCN(CC(=O)Nc2ccccc2F)CC1	17%	1.7	-5	2%	1.1%&0.3%	-14%	-9
O=c1[nH]c2cc3c(cc2cc1CN(Cc1nnnn1C1CCCC1)C1CCCC1)OCCO3	-6%	-12	-9	0%	32µM*	6%	-10
COc1ccc(S(=O)(=O)N2CCCCCC2)cc1C(=O)NCCc1ccccc1	/	/	-4	-11%	?	-1%	-14
Cc1oc2ccc(OCc3cccc(Cl)c3)cc2c1C(=O)O	7%	-4.3	1	-13%	-12%	17%	-19
O=C1C=C(c2ccc(C(=O)O)c(Cl)c2)C[C@@H](c2ccc3c(c2)OCO3)C1	/	/	-8	-24%	1.3%	2%	/
O=[N+]([O-])c1ccc(O)c(C(C#Cc2ccccc2)N2CCOCC2)c1 (stereo not given)	-3%	1.4	-5	-30%	/	0%[15.4 µM]	-11
COc1ccc(-c2sc3ccc(-c4ccc5c(c4)OCO5)cc3c2-c2ccc(OC)nc2)cc1	/	/	-12	2%	-25%	?	/
CCN(CC)CCCNC(=O)C1CCCN(c2nnc(N3CCCC3=O)s2)C1 (stereo not given)	9%	6.6	-15	7%	-1.9%	5%	1
COC(=O)Cn1c2[n+](c3ccccc31)CC(O)CS2 (stereo not given)	14%	4.2	-3	-7%	-1.0%	2%	10
COc1ccc(-c2nnc(SCc3ccc(C(=O)O)cc3)o2)cc1OC	3%	4.2	2	-7%	3.1%	-83%[inhibitor]	23
C=C(C)C1CC=C(C)/C(=N/NC(=O)c2ccoc2C)C1 (stereo not given)	24%	7.1	5	-17%	1.2%	-20%	-5
CSc1ccc(NC(=O)NCCN2CCc3ccccc3C2)cc1	-28%	2.6	-18	-16%	0.2%	-4%	12
O=C1c2ccccc2C(=O)c2c1cccc2N1CCN(Cc2ccccc2)CC1	-16%	0.1	-32	-12%	0.4%	-39%[inhibitor]	-16
COc1ccc(-n2nc(C(=O)NCC(=O)NCC3CCCO3)c3ccccc3c2=O)c(OC)c1 (stereo not given)	17%	2.5	-8	2%	0.5%	?	7
Cc1cc(C)n2nc(SCC(=O)c3cc(C)n(-c4cc(C)on4)c3C)nc2n1	?	0.1	-4	-15%	0.9%	6%	10
CC(C)c1ccccc1-n1c(SCc2cc(=O)oc3ccc4ccccc4c23)nnc1-c1cccnc1	?	14	-23	-12%	?	15%	1
COc1cc(NC(=O)c2ccccc2F)c(OC)cc1NC(=O)CN1CCOCC1	15%	-5.0	0	-39%	/	-11%[15.4 µM]	10
O=C(c1cc(COc2ccc(F)cc2F)on1)N1CCN(C(=O)c2ccco2)CC1	-27%	/	-12	-13%	0.4%	-19%	4
Cc1c([N+](=O)[O-])cc(C(=O)NCc2ccc(F)cc2)cc1[N+](=O)[O-]	13%	3.0	-5	-6%	/	7%	-7
Nc1nc(N2CCCCC2)c(C=O)c(N2CCCCC2)n1	2%	-0.3	-9	-24%	1.1%	3%[15.4 µM]	-1
CCOC(=O)C1CCN(S(=O)(=O)c2cc(Br)cc3c2N(C(C)=O)C(C)C3)CC1 (stereo not given)	7%	-0.3	-15	-29%	0.1%	?	3
Cn1c(O)c(N=NC(=O)c2ccco2)c2ccccc21	-6%	0.0	-4	-11%	/	-47%[inhibitor]	-11
CCN(CC(=O)NC(C)C)C(=O)Cc1ccc(C)c(C)c1	11%	-4.2	-1	11%	/	2%[15.4 µM]	5
Cc1ccc(OCc2cc(C(=O)N(C)Cc3cc(C4CC4)n[nH]3)no2)cc1C	8%	-0.4	-2	-22%	-0.6%	-28%	-1
COc1ccc(C(=O)N2CCCC(N3CCN(c4ccccc4OC)CC3)C2)c(OC)n1 (stereo not given)	11%	-0.2	-28	-5%	-0.4%	5%	2
O=c1cc(-c2c(F)c(F)c(F)c(F)c2F)oc2c(F)c(F)c(F)c(F)c12	6%	-0.2	/	/	/	/	-1
COc1ccc(C(=O)c2no[n+]([O-])c2C(=O)c2ccc(OC)cc2)cc1	-13%	4.4	0	-17%	-5.1%	-4%	0
COCCN(C(=O)c1csnn1)C(C(=O)NC(C)(C)C)c1cccc(OC)c1 (stereo not given)	-15%	1.9	-2	6%	-0.4%	-23%	7

# More results follow:
SMILES	Sfp inh	Menin MLL FP FL	D2 PAM	gsp antag	ClpP mod	gsp ag	TRPV1 PAM
COc1cccc(CNC(=O)COc2cccc3c2OC(C)(C)C3)c1	/	/	7	-1%	-1.6%	20%	-27
O=C(CCc1nc2ccccc2c(=O)[nH]1)N1CCN(S(=O)(=O)c2ccc(F)cc2)CC1	/	/	-2	-20%	-2.3%	?	29
COc1ccc(S(=O)(=O)Nc2ccc(NC(C)=O)cc2)cc1	13%	1.8	0	-6%	0.5%	4%	-2
CCOc1ccccc1OCC(=O)Nc1cccc(S(=O)(=O)N2CCCCCC2)c1	/	/	-3	-24%	-0.3%	-3%[15.4 µM]	15
O=C(c1ccco1)N1CCN(C(c2cccs2)c2sc3ncnn3c2O)CC1 (stereo not given)	8%	-3.4	-1	1%	1.6%	7%	22
O=C(Cc1ccc(Cl)cc1Cl)OCC(=O)N1CCN(C(=O)c2ccco2)CC1	14%	2.8	-2	-7%	/	-1%[15.4 µM]	-19
O/N=C1\CCC\C1=C/c1ccco1	17%	?	-1	5%	-1.5%	11%	5

# Assay outcomes: PubChem BioAssay, National Center for Advancing Translational Sciences (NCATS)
